Screening results deposited in PubChem by National Center for Advancing Translational Sciences (NCATS).
D2 ag = activates the human D2 dopamine receptor; activation, % (no concentration beside the values); DiscoveRx PathHunter D2 beta-arrestin, luminescence, 90 min; 100% = 57 uM dopamine signal; AID 624465; P14416; actives 0.084% (n = 360,000); in the data active = activation above about 40%; inconclusive = about 15% to 40%; inactive = below about 15%; also: compound concentration not given in the record; the text of the record calls up to 30% inactive
Target sequence (P14416 whole entry, looked up): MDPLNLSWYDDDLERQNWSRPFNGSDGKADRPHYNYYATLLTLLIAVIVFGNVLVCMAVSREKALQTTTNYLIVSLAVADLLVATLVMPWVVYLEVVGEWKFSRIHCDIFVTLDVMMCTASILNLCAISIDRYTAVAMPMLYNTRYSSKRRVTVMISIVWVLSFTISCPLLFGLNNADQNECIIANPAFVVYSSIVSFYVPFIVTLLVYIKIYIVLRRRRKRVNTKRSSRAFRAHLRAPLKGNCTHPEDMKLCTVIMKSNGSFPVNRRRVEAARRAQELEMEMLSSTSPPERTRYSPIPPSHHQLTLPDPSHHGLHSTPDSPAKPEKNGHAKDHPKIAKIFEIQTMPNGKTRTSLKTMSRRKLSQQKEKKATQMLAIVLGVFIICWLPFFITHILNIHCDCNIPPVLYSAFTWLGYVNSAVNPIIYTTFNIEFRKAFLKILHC
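Agonist mode: compounds alone added to overnight-plated D2 PathHunter cells for 90 min at 37 C, with 57 uM final dopamine (EC100) defining full response. Beta-arrestin recruitment detected by chemiluminescent reagent, read after 1 h at ambient temperature.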
PINK1 expr mod = modulators of PINK1 expression | PINK1 immunofluorescence, high-content cytometry, 24 h | Potency, µM (series often up to 76.6 µM), for inactives: at the top dose activation (PINK1 increase), hits mostly activators | actives 0.2% (n = 410,000) | AID 624263; active = well fitted activation curve with a large enough effect; inconclusive = small, poorly fitted or top-dose-only effect; inactive = flat fitted curve, though single readings scatter; cell line not stated here;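 also: potency is read from the fitted curve at half-maximal effect; % of control where 0% means no effect; nearly all actives have a fitted effect of over 65% in size; a mitochondrial uncoupler was the plate control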
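PINK1 protein level read as immunofluorescence by microplate cytometer in a fixed, stained stable cell line after 24 h exposure to five compound concentrations, with CCCP as control.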
D2 potentiator = human D2 receptor positive allosteric modulation; actives 0.23% (n = 360,000); AID 624464; P14416; DiscoveRx D2 beta-arrestin cells, luminescence, 90 min; 100% = 57 uM dopamine signal; potentiation, % (no concentration beside the values); active = potentiation of 50% or more; inconclusive = 30% to 50%; inactive = 30% or less;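 also: compound concentration not given in the record; tested on top of an EC20 dose of dopamine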
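PathHunter beta-arrestin assay in DiscoveRx D2 cells. Compounds were added with an EC20 of dopamine (50 nM final) for 90 min at 37 deg C. Luminescence was read 1 h after detection reagent, with 57 uM dopamine as the EC100 control.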
TRPML1 inh = inhibitors of human TRPML1 channel; Q9GZU1; AID 624415; activity change, negative = inhibition, % (no concentration beside the values); TRPML1-inducible cells, Ca2+ dye fluorescence, FDSS; hits give low values; inhibition of EC80 agonist-evoked calcium signal; actives 0.02% (n = 390,000); in the data active means activity change below about -50%; inconclusive means about -30% to -50%; inactive means above about -30%;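 also: stimulus is agonist 54-4 at its EC80 concentration; % is scaled to controls: 0 for no effect and ±100 for the full control effect; compound concentration not given in the record; the text of the record puts the active cut at -80%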
Target sequence (Q9GZU1 whole entry, looked up): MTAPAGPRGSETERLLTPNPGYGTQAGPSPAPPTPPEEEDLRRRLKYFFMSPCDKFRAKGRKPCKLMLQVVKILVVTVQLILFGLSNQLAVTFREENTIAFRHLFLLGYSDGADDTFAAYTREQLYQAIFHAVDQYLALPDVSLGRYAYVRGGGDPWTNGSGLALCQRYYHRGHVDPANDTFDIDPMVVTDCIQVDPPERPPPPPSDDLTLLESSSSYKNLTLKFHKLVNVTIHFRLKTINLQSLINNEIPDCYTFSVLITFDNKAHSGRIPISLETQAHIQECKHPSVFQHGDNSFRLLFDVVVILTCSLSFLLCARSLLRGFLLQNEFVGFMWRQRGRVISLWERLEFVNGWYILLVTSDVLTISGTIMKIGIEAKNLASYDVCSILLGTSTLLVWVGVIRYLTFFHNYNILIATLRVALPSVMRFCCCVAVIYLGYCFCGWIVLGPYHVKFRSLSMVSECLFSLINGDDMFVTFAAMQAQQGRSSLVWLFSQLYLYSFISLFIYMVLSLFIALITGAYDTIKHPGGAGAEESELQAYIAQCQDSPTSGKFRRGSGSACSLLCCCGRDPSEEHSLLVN
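Calcium fluorescence in TRPML1-DL cells induced overnight with Tet: a 110 s read after compound pin addition, then a 110 s antagonist read after challenge with 54-4 at 4 uM final (EC80).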
TRPML1 ag = activates the human TRPML1 channel; actives 0.12% (n = 410,000); Q9GZU1; activation, % (test concentration not listed); TRPML1-expressing cells, Ca2+ dye fluorescence, FDSS; host cell line not named in the record; reference of the full effect not given here; AID 624414; in the data active = activation above about 50%; inconclusive = about 30% to 50%; inactive = below about 30%; also: 0% is about no effect; the text of the record puts the active cut at 80%
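Tetracycline-induced TRPML1-DL cells are seeded and incubated overnight before loading with a no-wash Ca2+ dye and quencher. Agonist activity is taken from the 110 s fluorescence read following compound pin-transfer on an FDSS, before EC80 54-4 challenge.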
Six1-Eya2 blk = inhibitors of human Six1/Eya2 interaction. AlphaScreen GST-Six1/His-Eya2 binding, biochemical; hits give low values; control for the full effect not named in the record. activity change, % (no concentration beside the values). actives 0.56% (n = 360,000). AID 651725; in the data active = activity change below about -65%; inconclusive = about -30% to -65%; inactive = above about -30%; also: % is scaled to controls: 0 for no effect and ±100 for the full control effect; compound concentration not given in the record
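Homogeneous AlphaScreen proximity assay pairing GST-Six1 with His-tagged Eya2 (added as 5X mix: 250 nM and 500 nM) in 50 mM Tris pH 8.0, 300 mM NaCl, 1 mM TCEP. Glutathione donor and nickel acceptor beads; 1 h, 37 °C, dark.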
* hit, by the source's call; ? = inconclusive; · = no result given; [ ] = another dose, or the depositor's remark.

SMILES	D2 ag	PINK1 expr mod	D2 potentiator	TRPML1 inh	TRPML1 ag	Six1-Eya2 blk
Cc1ccccc1Nc1nc(-c2cccc(Cl)c2)c2c(n1)-c1ccccc1OC2	·	1.6%	·	1	0.9	·
Oc1ccc(C(=S)N2CCN(c3cccc(Cl)c3)CC2)cc1	5.2	0.4%	-1	4	-0.3	-25
CCN1CCN(c2nc(Nc3ccccc3F)nc(N)c2[N+](=O)[O-])CC1	-0.8	0.6%	-31	10	0.1	-21
COc1ccc(NC(=O)Nc2ccc3nccnc3c2)cc1	-4.1	3.1%	1	0	-0.7	-24
Cc1oc(-c2cccc(Cl)c2)nc1CN1CCC(C(=O)NCc2ccc(F)cc2)CC1	·	-1.1%	·	2	0.0	·
O=C(OCc1ccccc1)N1CCN(/[N+]([O-])=N/Oc2ccc([N+](=O)[O-])cc2[N+](=O)[O-])CC1	·	0.5%	·	25	2.0	·
COC(=O)c1ccc(C(C(=O)NC2CCCCC2)N(CCc2ccccc2)C(=O)Cc2cccs2)cc1 (configuration not stated)	1.8	7.5%	-7	7	0.2	-2
CC(C)[C@H](NC(=O)c1ccccc1)C(=O)OCC(=O)c1ccc(S(=O)(=O)N2CCCCC2)cc1	-11	-1.1%	-25	0	0.3	4
O=[N+]([O-])c1ccc(O)c(C=Nc2ccc3nc(-c4ccccc4)[nH]c3c2)c1	-4.6	0.3%	-30	10	0.9	-3
CCn1c(SCC(=O)Nc2ccc(S(N)(=O)=O)cc2)nnc1-c1cccc(OC)c1	-2.8	3.0%	-1	-12	-1.0	-2
Cc1ccc(S(=O)(=O)c2ccc(Oc3cccc(C)c3)cc2)cc1	-0.3	0.6%	-3	22	2.1	9
O=C(CCC1CCCCC1)NCc1ccc(F)cc1	-4.9	-1.7%	-22	-7	-0.1	5

Record cards, as listed above.
`Oc1ccc(C(=S)N2CCN(c3cccc(Cl)c3)CC2)cc1` is listed with D2 ag: 5.2; PINK1 expr mod: 0.4%; D2 potentiator: -1; TRPML1 inh: 4; TRPML1 ag: -0.3; Six1-Eya2 blk: -25
`Cc1ccccc1Nc1nc(-c2cccc(Cl)c2)c2c(n1)-c1ccccc1OC2` is listed with D2 ag: ·; PINK1 expr mod: 1.6%; D2 potentiator: ·; TRPML1 inh: 1; TRPML1 ag: 0.9; Six1-Eya2 blk: ·

New compounds follow:
SMILES	D2 ag	PINK1 expr mod	D2 potentiator	TRPML1 inh	TRPML1 ag	Six1-Eya2 blk
Cc1ccc(NS(=O)(=O)c2cccc(C(=O)n3ncc(C#N)c3N)c2)c(C)c1	-1.5	8.3%	-4	16	0.0	-9
CCOc1ccc(CCN2C(=S)N([C@@H](Cc3ccc(O)cc3)CN3CCC[C@@H]3CN3C(=S)NC[C@@H]3Cc3ccccc3)C[C@@H]2CC(C)C)cc1	0.7	5.8%	-8	9	-0.3	-13
C=CCOc1ccc(CNc2ccc3[nH]c(=O)[nH]c3c2)cc1	13	2.3%	2	24	-0.3	-27
Cc1cc2cc(C=O)c(Cl)nc2cc1C	-1.0	0.5%	-12	13	4.5	7
CCc1cc2c(cc3c(=O)n(CCCC(=O)NCc4cccc(Br)c4)ncn32)s1	·	0.4%	·	-6	-0.3	·
CC(C)c1cccc(-c2csc(C(C)(O)c3ccccc3)n2)c1 (configuration not stated)	3.3	-1.6%	-10	14	0.9	10
CC(=O)Nc1ccc(C(=O)N(C)C(C(=O)Nc2ccc(C)cc2)c2ccccn2)cc1 (configuration not stated)	-6.1	2.5%	-5	18	0.1	-4
CC(=O)C(c1ccccc1)C(c1ccccc1)C(C)[N+](=O)[O-] (configuration not stated)	-5.4	1.9%	-6	11	1.5	8
Cc1noc(C)c1COc1ccc(C(=O)OCC(=O)Nc2ccc(C(=O)N(C)C)cc2)cc1	-5.5	0.7%	-33	-9	0.8	15
CCN1CCN(C(=O)c2ccc(OCC(=O)Nc3ccc(F)cc3)c(OC)c2)CC1	-0.6	-0.3%	-4	9	0.0	-3
CCc1ccc(N(C(=O)c2csnn2)C(C(=O)NC(C)(C)C)c2ccccn2)cc1 (configuration not stated)	-1.0	0.4%	-1	4	0.0	0
CN(C)Cc1csc(NC(=O)Nc2ccccc2Cc2ccccc2)n1	4.6	4.9%	-5	-9	-0.1	-4
COc1ccc(N2C(=O)CC(NCC#N)C2=O)cc1 (configuration not stated)	-4.5	1.9%	-3	3	0.1	2
COc1ccc(COCC(O)CN(Cc2ccccc2)C(C)C)cc1OC (configuration not stated)	-0.4	1.1%	-6	-16	0.2	14
CC(=O)OCc1cc(=O)n2nc(C3CCCCC3)sc2n1	·	0.8%	·	-4	-0.7	·
CC1CN(CCCCOc2cccc(Oc3ccccc3)c2)CC(C)O1 (configuration not stated)	-4.6	?	-16	31	1.6	7
COc1cccc(CN2CCN(C(=S)NCc3ccc(Cl)cc3)CC2)c1	3.5	0.7%	-13	4	0.6	?
Oc1cccc(C(O)CNCc2ccc(-c3ccccc3)cc2)c1 (configuration not stated)	-3.7	7.8%	-21	5	0.8	-5
COc1ccc(NC(=O)c2cccc3ccccc23)cc1	-1.5	5.8%	2	13	-0.3	-7
Cc1nc(SCc2cccc(Cl)c2)nc2c1CCCC2	·	5.0%	·	-1	-0.3	·
CCOc1ccc(C(C(=O)NC(C)(C)C)N(CCOC)C(=O)CCC(=O)Nc2nccs2)cc1 (configuration not stated)	-2.5	3.2%	-6	-4	-0.4	8
COc1ccc(OCCOc2ccc(S(=O)(=O)N3CCCC3)cc2[N+](=O)[O-])cc1	-2.8	1.8%	-3	28	2.1	-15
Cc1ccc(-c2cc(-c3ccccc3)no2)c(O)c1	-3.8	5.2%	-28	9	0.2	4
O=C(C1CCN(S(=O)(=O)Cc2ccccc2)CC1)N1CCN(c2ccccc2)CC1	·	0.7%	·	13	-1.0	·
CC(=O)c1cccc(NC(=O)Nc2sc3nc4n(c(=O)c3c2C)CCC(C)CC4)c1 (configuration not stated)	·	-0.2%	·	4	-0.5	·
COc1ccc(OC)c2c1C(=O)CC2C (configuration not stated)	-4.0	1.3%	-10	19	-0.4	-2
Cc1ccc(C)c(NS(=O)(=O)c2ccc3[nH]c(=O)oc3c2)c1	-1.9	-0.3%	0	-9	0.3	2
Cc1ccc2nc(C)c(C(=O)NN=C3CCN(C)CC3)n2c1	8.4	5.6%	12	2	0.9	-3
C=C1[C@H](C)CN(S(=O)(=O)C(C)(C)C)[C@H]1CCO	-2.9	-0.8%	·	3	0.3	3
O=S(=O)(Nc1ccc(S(=O)(=O)Nc2ccccc2)cc1)c1ccccc1	1.3	-2.1%	12	1	2.0	1
CCOC(=O)N1CCN(C(=O)CCCn2nc(C)c3sc4ccccc4c3c2=O)CC1	-0.6	-1.9%	9	-10	-1.1	4
O=C1CC(c2ccc(Br)cc2)c2c(ccc3ccccc23)N1 (configuration not stated)	·	2.5%	·	6	0.4	·
CCCCc1c(-c2ccc(OC)c(OC)c2)ncn1CCc1ccccc1OC	·	?	·	·	-0.5	-25
C/C(=N\NC(=O)CCCCCNC(=O)c1ccccc1)c1ccccc1O	-3.5	1.9%	-35	-5	0.4	-14
O=c1cc(O)sc2ccccc12	-2.2	2.2%	4	-14	-0.5	4
O=C(CSc1ccccc1)N1CCN(C(=O)c2ccco2)CC1	-4.8	3.1%	-2	6	4.2	10

An excerpt of these results, in markdown.
| Compound | D2 ag | PINK1 expr mod | D2 potentiator | TRPML1 inh | TRPML1 ag | Six1-Eya2 blk |
| --- | --- | --- | --- | --- | --- | --- |
| CC(=O)c1cccc(NC(=O)Nc2sc3nc4n(c(=O)c3c2C)CCC(C)CC4)c1 (configuration not stated) | · | -0.2% | · | 4 | -0.5 | · |
| COc1ccc(OC)c2c1C(=O)CC2C (configuration not stated) | -4.0 | 1.3% | -10 | 19 | -0.4 | -2 |

Additional results.
SMILES	D2 ag	PINK1 expr mod	D2 potentiator	TRPML1 inh	TRPML1 ag	Six1-Eya2 blk
CCN(CC)c1ccc(NC(=O)C2CCCN(S(=O)(=O)c3cccnc3)C2)c(C)c1 (configuration not stated)	-1.3	2.2%	-7	37	0.7	-8
COc1ccc(/C=C/c2cc(C(F)(F)F)on2)cc1	1.5	-2.0%	-1	6	2.0	16
O=C(O)CSc1nnc2c(n1)[nH]c1ccccc12	5.0	1.0%	-6	-2	-0.6	-16
CN(Cc1cccc(C(F)(F)F)c1)Cc1nc(-c2cnccn2)no1	-0.4	0.3%	3	27	0.1	2
CCc1ccc2oc(C(=O)Nc3cccnc3)c(C)c2c1	1.0	0.7%	-35	·	·	-8
Cc1ccc(OCC(=O)Nc2ccccc2C(=O)N2CCCCC2)cc1	0.0	1.1%	8	3	-0.4	1
CCOc1ccc(C(=O)N(Cc2nc(-c3cccc(C)c3)no2)C(C)C)cc1	·	2.9%	·	4	1.8	·
CC(C)CCNC(=O)CN(Cc1ccccc1Cl)C(=O)CCC(=O)Nc1ccccn1	-1.4	-1.2%	-6	-1	-0.5	-7
CCOC(=O)Nc1ccc(C(N)=O)cc1	-2.7	1.7%[38.3 µM]	-11	-19	1.1	2
CCOc1ccc2nc(NS(=O)(=O)Cc3ccccc3)sc2c1	-2.7	2.8%	-2	2	-1.0	-6
Cn1ncc(Cl)c1C(=O)N/N=C/c1ccccn1	-0.4	4.3%	4	4	1.4	-80*
CCOC(=O)N1CCN(C(=S)Nc2ccc(C)c(C)c2)CC1	5.7	-1.0%	4	-12	-1.5	1
O=C(NCC1CCCO1)c1ccc(CNS(=O)(=O)c2ccc(F)c(Cl)c2)cc1 (configuration not stated)	-2.0	0.2%	1	3	0.2	23
CCc1c(C)n2nc(C)cc2[nH]c1=O	-3.7	2.8%	4	60	0.1	-18
O=C(COC(=O)c1ccccn1)NCc1cccs1	-1.6	-1.8%	-8	-9	0.9	-3
COc1cc(CN2C[C@@H](CO)O[C@@H](n3cnc4c(NCCCO)ncnc43)C2)cc(OC)c1OC	3.2	0.5%	-4	·	-0.2	10
COc1cccc(Cn2c(C)c(CNCc3ccccc3Cl)c(C(=O)O)c2C)c1	·	0.6%	·	24	1.7	·
O=C1c2nccnc2C(=O)N1c1ccc(F)cc1	-5.2	-1.0%	-1	10	-1.0	8
O=c1c2cc(Br)ccc2[nH]c(=S)n1Cc1ccccc1	4.8	?	-3	-6	-0.5	6
C#CCSc1nnnn1-c1ccc(Br)c(C)c1	0.3	0.5%	-3	9	2.8	2
Cc1c(C(=O)C(=O)NCc2cccs2)c2ccccc2n1C	1.5	-0.6%	-1	0	-0.3	-2
COc1cc(NC(=O)c2cccc3c(-c4cccnc4)coc23)cc(OC)c1OC	44*	2.7%	9	·	-0.6	-5
Cc1ccc2c(C)c(C(=O)NCCN3CCCC(O)C3)oc2c1C (configuration not stated)	11	-1.0%	-8	-2	0.1	-4
Cc1cc(C)cc(NC(=O)c2sc3nc4n(c(=O)c3c2C)N=C(c2ccccc2)CS4)c1	·	1.0%	·	-5	2.2	·
O=C(CSc1nc2ccccc2o1)N1c2ccccc2Sc2ccc(Cl)cc21	-2.1	7.4%[38.3 µM]	-6	-13	-0.1	-3
O=C(CCCCCCCC(=O)N1CCCCC1)N1CCCCC1	-0.8	0.9%	4	2	1.4	-9

D2 ag: entries above that show a hit
compound | D2 ag | PINK1 expr mod | D2 potentiator | TRPML1 inh | Six1-Eya2 blk
COc1cc(NC(=O)c2cccc3c(-c4cccnc4)coc23)cc(OC)c1OC | 44* | 2.7% | 9 | · | -5
